# Source: PubChem (several laboratories)
# CSC inhib: cancer stem cell inhibition; cancer stem cell-like cells viability, luminescence; inhibition, % at 7.5 µM; 300,000 tested, 1.1% active; AID 2717;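 active means mean at 75% or more and at least half the replicates too; inconclusive means mean and replicates disagree; tested in HMLE shEcad cells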;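 further: 0% = median of negative and 100% = median of positive control wells; the first replicate is given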
# Rce1 inhib: yeast Ras-converting enzyme inhibition; Q03530; calls only; yeast membranes, quenched prenylated peptide cleavage fluorescence; 290,000 tested, 0.27% active;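 active means fall in fluorescence gain of 50% or more versus controls, with final raw signal at or below 3038400; inconclusive means same 50% fall but final raw signal above 3038400; inactive means fall in fluorescence gain under 50%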;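 further: plate controls were neutral control wells for no effect and wells lacking membranes for full effect; tested at 10 µM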
# PABP polyA inh: PABP-poly(A) binding inhibition; P11940; PABP-poly(A) RNA binding, fluorescence polarization; inhibition, % at 35 µM; 290,000 tested, 1% active; AID 2014;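 active means 50% or more with normal probe brightness, or confirmed in later tests; inconclusive means above 50% with abnormal brightness, or retests that disagree; inactive means below 50% or failed in later tests; about a fifth of its hits are not listed in these tables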;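 further: calls also rest on retests at 20 µM and on dose response follow-up; controls were probe without protein and protein plus probe with vehicle; some compounds called inactive have numbers as strong as hits; many hits fall short of the cut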
# Target sequence (P11940 whole entry, looked up): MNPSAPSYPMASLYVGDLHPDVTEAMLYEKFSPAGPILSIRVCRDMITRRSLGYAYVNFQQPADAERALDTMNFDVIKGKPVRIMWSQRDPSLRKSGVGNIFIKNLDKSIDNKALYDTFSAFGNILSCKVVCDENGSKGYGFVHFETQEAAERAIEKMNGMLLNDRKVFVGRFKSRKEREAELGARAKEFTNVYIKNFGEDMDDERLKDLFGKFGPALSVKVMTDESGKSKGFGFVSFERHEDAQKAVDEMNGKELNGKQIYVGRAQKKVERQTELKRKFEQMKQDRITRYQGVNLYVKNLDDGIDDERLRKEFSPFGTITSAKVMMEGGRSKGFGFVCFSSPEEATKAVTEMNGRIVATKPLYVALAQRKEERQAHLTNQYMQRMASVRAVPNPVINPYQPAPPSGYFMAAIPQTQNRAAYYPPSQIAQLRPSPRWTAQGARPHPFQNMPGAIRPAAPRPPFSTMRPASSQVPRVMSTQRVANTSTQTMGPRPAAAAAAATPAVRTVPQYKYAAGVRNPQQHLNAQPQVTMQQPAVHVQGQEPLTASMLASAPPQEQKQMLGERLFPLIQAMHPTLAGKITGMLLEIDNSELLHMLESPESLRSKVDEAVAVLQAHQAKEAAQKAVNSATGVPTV
# eIF4H inh: inhibitors of RNA binding by human eIF4H. Q15056. eIF4H fluorescence polarization binding assay. inhibition, % at 35 µM. 290,000 tested, 0.94% active;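 active means 50% or more with normal probe brightness, or confirmed in later tests; inconclusive means above 50% with abnormal brightness, or retests that disagree; inactive means below 50% or failed in later tests; about a fifth of its hits are not listed in these tables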;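 further: calls also rest on retests at 20 µM and on dose response follow-up; 0% = protein and probe with vehicle and 100% = probe without protein; strong numbers were not always called active; many hits fall short of the cut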
# Env fusion inh: HIV envelope-mediated fusion inhibition; HeLa-JRFL Env/CEM21 cell fusion, luciferase; 360,000 tested, 1.1% active; inhibition, % at 12.3 µM;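 active means mean replicate inhibition score of at least 50 and every replicate individually at or above 50; inconclusive means only one of the two criteria met; inactive means mean below 50 and not all replicates reaching 50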;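 further: 0% = plate neutral controls and 100% = maraviroc near 300 nM; one replicate is shown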
# Yeast UUG start: alters start codon recognition fidelity in yeast. S. cerevisiae UUG-firefly luciferase reporter, luminescence/redox ratio. activity score, % at 18.7 µM. 350,000 tested, 0.13% active. AID 602363;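 active means replicate mean at a twofold rise or more, about +100% in these data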;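 further: firefly luciferase made from a UUG start codon reports start codon fidelity; reporter light over untreated wells divided by growth signal over untreated wells; some hits fall short of that in this replicate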
# MT1-MMP act inh: MT1-MMP (human) activation inhibition; HT1080 RFP-PRO-GFP cells, GFP/RFP ratio fluorescence, overnight; percent of plate control window, DMSO zero; P50281; GFP/RFP ratio change, % at 20 µM; AID 651647; 360,000 tested, 0.061% active;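 active means GFP/RFP ratio change of at least 30% with cell ATP level not reduced by more than half and red fluorescence within 50% of control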; further: strong numbers were not always called active
#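 Read-out: GFP/RFP fluorescence ratio; Test system: RFP-PRO-GFP reporter HT1080 cells; Compound dosing: single-point 20 µM compound, 1% DMSO; Times: overnight compound exposure at 37 °C.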
# eIF4H inh retest: also measured in eIF4H inh; calls as there; inhibition, %; compound at 20 µM; confirmation average;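 mean of two retest wells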
# PABP polyA inh retest: second read-out of PABP polyA inh, no call of its own (marks repeat the call); inhibition, %; compound at 20 µM; confirmation repeats;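 mean of two retest wells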
# MT1-MMP act inh RFP: further read-out of MT1-MMP act inh, marked with its call; RFP signal change, %; measured here: RFP expression control read;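 0 = vehicle wells; hits needed this value within 50% of zero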
# Numbers without * were called inactive; i = inactive; ? = inconclusive; · = not tested or not shown; + = active, no number. This is a subset; count on the stated rates, not on these rows.
SMILES,CSC inhib,Rce1 inhib,PABP polyA inh,eIF4H inh,Env fusion inh,Yeast UUG start,MT1-MMP act inh,MT1-MMP act inh RFP,others
COc1ccc(C(=O)Nc2cccc(C(=O)N/N=C/c3ccc(OC)cc3OC)c2)cc1,·,i,-3,-5,15,-23,1,4,
CCCCc1ccc(N2C(=O)[C@@H]3C(CC(N)=O)NC4(C(=O)Nc5ccc(F)cc54)[C@@H]3C2=O)cc1 (stereo partly drawn),-5,i,-1,6,-8,-6,1,1,
COc1cc(C(=O)Nc2ccc3c(c2)ncn3C(C)(C)C)cc(OC)c1OC,-9,i,10,-4,-3,-21,3,1,
COc1cccc(CCN2C(=O)C(=O)N([C@@H](CNCc3ccccc3)Cc3ccccc3F)C[C@@H]2C(C)(C)C)c1,21,·,2,-9,·,·,·,·,
Cc1c(CCOC(=O)CC23CC4CC(CC(C4)C2)C3)sc[n+]1CC(=O)c1ccccc1,100*,i,-9,-9,?,·,-10,-8,
O=c1[nH]c(NC2CCCCC2)nnc1Cc1ccccc1,-15,·,-11,-3,-26,-21,0,0,
Cc1cc2c(c(=O)o1)C(c1cccs1)C(C#N)=C(N)O2 (stereo not drawn),0,i,-4,-4,·,·,-4,4,
COc1cc2c(cc1OC)C(c1ccc(C)o1)CC(=O)N2 (stereo not drawn),5,i,13,-2,-401,7,2,2,
COc1ccc(N2C(=O)CC(Nc3ccc(N4CCOCC4)cc3)C2=O)c(OC)c1 (stereo not drawn),·,i,-5,4,-1,-16,9,3,
Cn1c(Oc2ccncc2)nc2cc(-c3ccsc3)sc2c1=O,·,·,·,·,1,-4,3,2,
COc1ccc(OC)c(NC(=O)C2(C)CCN2Cc2ccccc2Cl)c1 (stereo not drawn),·,·,·,·,10,-9,-1,0,
O=C(Cc1ccc2c(c1)OCCO2)Nc1ccc(Cl)c(S(=O)(=O)N2CCOCC2)c1,·,·,·,·,2,5,11,-6,
CC(C)CNC(=O)COC(=O)c1ccc(Cl)c(S(N)(=O)=O)c1,-6,i,8,3,-36,-3,0,4,
CCC(C)(C)NC(=O)C1CCC(CNS(=O)(=O)c2cccc3nsnc23)CC1 (stereo not drawn),-11,i,10,-4,·,0,1,-2,
O=C(CCCSc1nc2sc3c(c2c(=O)[nH]1)CCC3)NCCO,0,i,-2,-4,·,-2,0,1,
COc1ccc(C(CNC(=O)CSc2ccccc2F)N2CCOCC2)cc1 (stereo not drawn),-8,i,·,·,12,·,-2,3,
CCc1ccc(OCC(=O)N(CC)CC)cc1,-8,i,-10,-5,5,·,2,2,
CC(=O)Oc1ccc2c(=O)c(Oc3ccccc3)c(C)oc2c1OC(C)=O,·,i,15,15,-37,-5,3,1,
COc1ccccc1-n1c(CNC(=O)c2ccc(S(=O)(=O)N3CCOCC3)cc2)n[nH]c1=S,6,i,5,5,·,-20,-1,1,
CN1CCN(/C=N/C2=C(C#N)C(c3ccccc3)C3=C(CC(C)(C)CC3=O)O2)CC1 (stereo not drawn),15,i,-3,0,-72,-9,-14,-1,
COc1ccc(NC(=O)Cn2c(C(C)C)nc(C)cc2=O)cc1Cl,·,i,14,2,1,·,0,2,
NNC(=O)c1nn(-c2ccc(Cl)cc2)cc1O,-9,i,-1,22,-27,-10,-5,-10,
COc1cccc(NC(=O)CN(C)C(=O)c2cc3ccccc3cc2OC)c1,-7,·,·,·,·,-7,-7,-11,
Cc1ccccc1NC(=O)C(C)OC(=O)CCC(=O)N(CC(C)C)c1c(N)n(CC(C)C)c(=O)[nH]c1=O (stereo not drawn),-9,i,·,·,·,·,4,4,
Cc1cc(NC(=O)CSc2nnc(-c3ccncc3)n2Cc2ccccc2)n(-c2ccccc2)n1,-6,i,-8,-6,-5,·,-4,-3,

# Not a retest: an excerpt of the list.
SMILES,CSC inhib,Rce1 inhib,PABP polyA inh,eIF4H inh,Env fusion inh,Yeast UUG start,MT1-MMP act inh,MT1-MMP act inh RFP,others
COc1ccc(C(=O)Nc2cccc(C(=O)N/N=C/c3ccc(OC)cc3OC)c2)cc1,·,i,-3,-5,15,-23,1,4,
CCCCc1ccc(N2C(=O)[C@@H]3C(CC(N)=O)NC4(C(=O)Nc5ccc(F)cc54)[C@@H]3C2=O)cc1 (stereo partly drawn),-5,i,-1,6,-8,-6,1,1,
COc1cc(C(=O)Nc2ccc3c(c2)ncn3C(C)(C)C)cc(OC)c1OC,-9,i,10,-4,-3,-21,3,1,
COc1cccc(CCN2C(=O)C(=O)N([C@@H](CNCc3ccccc3)Cc3ccccc3F)C[C@@H]2C(C)(C)C)c1,21,·,2,-9,·,·,·,·,
Cc1c(CCOC(=O)CC23CC4CC(CC(C4)C2)C3)sc[n+]1CC(=O)c1ccccc1,100*,i,-9,-9,?,·,-10,-8,
O=c1[nH]c(NC2CCCCC2)nnc1Cc1ccccc1,-15,·,-11,-3,-26,-21,0,0,
Cc1cc2c(c(=O)o1)C(c1cccs1)C(C#N)=C(N)O2 (stereo not drawn),0,i,-4,-4,·,·,-4,4,
COc1cc2c(cc1OC)C(c1ccc(C)o1)CC(=O)N2 (stereo not drawn),5,i,13,-2,-401,7,2,2,
COc1ccc(N2C(=O)CC(Nc3ccc(N4CCOCC4)cc3)C2=O)c(OC)c1 (stereo not drawn),·,i,-5,4,-1,-16,9,3,
Cn1c(Oc2ccncc2)nc2cc(-c3ccsc3)sc2c1=O,·,·,·,·,1,-4,3,2,
COc1ccc(OC)c(NC(=O)C2(C)CCN2Cc2ccccc2Cl)c1 (stereo not drawn),·,·,·,·,10,-9,-1,0,
O=C(Cc1ccc2c(c1)OCCO2)Nc1ccc(Cl)c(S(=O)(=O)N2CCOCC2)c1,·,·,·,·,2,5,11,-6,
CC(C)CNC(=O)COC(=O)c1ccc(Cl)c(S(N)(=O)=O)c1,-6,i,8,3,-36,-3,0,4,

# The results go on:
SMILES,CSC inhib,Rce1 inhib,PABP polyA inh,eIF4H inh,Env fusion inh,Yeast UUG start,MT1-MMP act inh,MT1-MMP act inh RFP,others
COc1ccc(C)cc1NC(=O)C1CCCN(S(=O)(=O)c2cccs2)C1 (stereo not drawn),-16,·,-5,-7,-4,7,2,2,
CC1(C)CC(=O)C2=C(C1)N(CCN1CCOCC1)C1=C(C(=O)CC(C)(C)C1)C2c1cccc(F)c1,-5,i,-13,-4,-12,-1,3,-1,
Cc1ccc2c(C)c(C(=O)Nc3nnc(C)s3)oc2c1,-9,i,-8,-3,·,-5,3,-1,
CCN(CC)C(=O)[C@H]1C[C@H](CC(=O)NCCN2CCOCC2)C(=O)N2CCc3c([nH]c4cc(CCC(=O)N(C)C)ccc34)[C@]12C,·,·,·,·,1,-6,1,6,
S=C1NC(c2ccccc2)=NCN1c1ccc(Cl)cc1,-5,i,9,2,·,-16,-3,2,
COc1ccccc1NC(=O)CSc1nnnn1-c1ccccc1OC,-6,i,4,0,1,-12,3,-3,
NS(=O)(=O)c1cccc(NC(=O)COC(=O)/C(=C/c2cccs2)c2cccs2)c1,1,i,2,16,-8,·,0,-4,
COc1cc(NS(=O)(=O)c2ccc(NC(C)=O)cc2)cc(OC)c1,4,i,-8,-1,52,-15,1,-12,
Cc1cccc(/C=C2/Sc3ccc(C(=O)N4CCOCC4)cc3NC2=O)c1,24,i,·,·,10,-1,-3,-9,
Cc1ccn2cc(CSc3ccccc3)nc2c1,2,i,-16,7,·,-37,12,-3,
COCCNC(=O)c1cn(CCOC)c(=O)c2c1c1ccccc1n2C,-10,i,-14,-4,-11,6,3,10,
CC1CCN(C(=O)c2scc3c2OCCO3)CC1,-12,i,1,92,34,-18,-10,-9,eIF4H inh retest=-8;PABP polyA inh retest=3
Cc1nc(S/C(C(=O)O)=C2/C(=O)Nc3ccccc32)n[nH]1,-7,i,10,1,3,·,8,5,
COc1cc(C(=O)NCCC(=O)NCCc2ccc(Cl)cc2)cc(OC)c1OC,-13,i,7,-10,3,·,4,6,
O=C(CN1CCN(Cc2ccc(Cl)cc2)CC1)N/N=C/c1ccccc1F,0,i,0,6,-3,-13,3,-2,
CNC(=S)NCCc1c[nH]c2ccc(OC)cc12,1,i,3,-7,2,-23,5,7,
Cc1ncc(CO)c(/C=N/NC(=S)Nc2ccc(C(C)C)cc2)c1O,8,i,14,24,3,-8,-5,3,
O=C(N/C=C\n1cnc2cc(C(F)(F)F)ccc21)c1ccc([N+](=O)[O-])cc1,-1,·,4,-8,24,-12,-1,-1,
COc1ccccc1N(Cc1cc(=O)[nH]c2ccccc12)C(=O)c1cccc([N+](=O)[O-])c1,·,i,3,0,-8,-8,2,-3,
Cc1cccc(-c2ccc3[nH]c4c(c3c2)CCN2C[C@@H]([C@H](C)O)[C@@H](N(C)C(=O)NC3CCCCC3)C[C@@H]42)c1,·,·,·,·,7,-8,-6,3,
CC(=O)NNc1cc(=O)c2c(=O)n(C)c(=O)n(C)c2[nH]1,-15,i,-2,-1,·,-9,2,2,
O=C(C(=O)N1CCCc2ccccc21)N1CCCc2ccccc21,-8,i,6,4,-14,·,2,6,
O=C(CN1C(=O)NC2(CCCCCCC2)C1=O)N1CCc2ccccc2C1,-5,i,4,-10,6,2,2,-6,
Cc1cc(Br)cc2c(C(=O)Nc3c(C)n(C)n(-c4ccccc4)c3=O)cc(-c3cccs3)nc12,25,i,20,-5,·,·,-16,-18,
CN1CCN(NC(=O)c2cc(-c3ccc(Br)s3)nc3ccccc23)CC1,29,i,3,-6,-4,-4,-1,1,
# (listing goes on)
SMILES,CSC inhib,Rce1 inhib,PABP polyA inh,eIF4H inh,Env fusion inh,Yeast UUG start,MT1-MMP act inh,MT1-MMP act inh RFP,others
C/C(=N\Nc1ccc([N+](=O)[O-])cc1)c1ccco1,5,i,2,-15,-76,·,-13,-2,
O=C(Nc1cccn(Cc2cccc(F)c2)c1=O)NC1CCCCC1,-7,·,4,1,8,·,0,-6,
O=C(Nc1nnc([C@H]2C[C@H](O)[C@@H](CO)O2)s1)Nc1cccc(Cl)c1Cl,·,·,·,·,-33,-7,2,5,
CCc1ccc2nc(NC(=O)CSCc3c(C)noc3C)sc2c1,20,i,-7,7,-82,-26,-1,0,
COc1cccc(N(C(=O)C2COc3ccccc3O2)C(C(=O)NC2CCCCC2)c2ccc(O)cc2)c1 (stereo not drawn),23,i,-7,-10,8,·,·,·,
COc1ccccc1NC(=O)C1CCCN(S(=O)(=O)c2c(C)noc2C)C1 (stereo not drawn),1,i,-7,-9,3,-13,-1,0,
O=C(NC(=Nc1nc2ccccc2o1)NC(=O)c1ccccc1)c1ccccc1,-7,i,10,7,-37,-22,-1,0,
COc1cc(CNc2ccc(NC(C)=O)cc2)ccc1OCc1ccccc1C,37,i,-14,-1,-57,·,-4,-6,
CCN1CCc2c(sc(NC(=O)Cc3ccccc3)c2C(N)=O)C1,·,i,2,-5,-14,-11,2,1,
CCn1c(=O)n(CC(=O)NCc2ccccc2OC)c(=O)c2ccccc21,2,i,-10,-4,·,-7,-1,1,
Cc1ccnc(SCC(=O)N2CCc3ccccc3C2)n1,5,i,10,-5,3,·,1,3,
COc1ccc(/C=C2\SC(=S)N(CC(=O)NNC(=O)c3ccncc3)C2=O)cc1,-5,i,0,36,1,·,0,-1,
COc1ccc(NC(=O)C(C)NS(=O)(=O)c2ccc(NC(C)=O)cc2)cc1Cl (stereo not drawn),·,·,9,-3,-19,-12,2,2,
CCN(C(=O)COC(=O)c1cc(-c2cccs2)nc2ccccc12)C1CCS(=O)(=O)C1 (stereo not drawn),-10,+,2,-5,-2,·,0,-3,
